# Sa ugtP lethal: kills S. aureus RN4220 lacking UgtP; S. aureus RN4220 ugtP deletion, OD600 growth, 16 h; some inactives read as strong as hits; growth inhibition, % (test concentration not listed); actives 0.54% (n = 330,000); AID 1259309;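 active means z-score under -3 and OD600 up to 0.15 on both plates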;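 further: plate controls were untreated wells for no effect and antibiotic for full effect; wells of about 80 µL received 100 nL stock; the first replicate is given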
# Sa RN4220 lethal: S. aureus RN4220 growth inhibition; actives 0.33% (n = 330,000); OD600, 16 h; AID 1259311; inhibition, % (test concentration not listed);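 active means z-score of -3 or lower and OD600 up to 0.18 on both plates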;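 further: plate controls were untreated cells for no effect and reference antibiotic for full effect; stock transfer was 100 nL into about 80 µL; one replicate is shown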
# BJeLR viability: kills HRASV12-expressing BJeLR cells; BJeLR (HRASV12) viability, CellTiter-Glo ATP luminescence, 48 h; reference of the scale not given here; inhibition, % (no concentration beside the values); actives 0.17% (n = 300,000); AID 1554;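 active means replicate mean above 50%; inconclusive means above 50% but judged a plate artefact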;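 further: 50 nL library stock added to about 25 µL; numbers are from one replicate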
# Mtb hypoxia rep: inhibitors of hypoxia-regulated fluorescent reporter in Mycobacterium tuberculosis; M. tuberculosis hypoxia-regulated fluorescent reporter, fluorescence; fluorescence inhibition, % (test concentration not listed); actives 0.1% (n = 300,000); AID 1159583;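 active means 35 to 45% if threefold the growth effect, above 45% if 1.5-fold the growth effect; inactive means the rest, general growth blockers included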;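 further: wells of about 50 µL received 100 nL stock; 0% = vehicle wells and 100% = reference inhibitor wells; whole bacteria with a GFP reporter of the hypoxia response; strong numbers were not always called active; many hits fall short of the cut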
# PrP 5UTR inh: suppresses PrP 5' UTR mRNA reporter expression. inhibition, % (test concentration not listed). actives 0.35% (n = 340,000). cell-based PrP 5' UTR mRNA reporter, plate reader;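 active means every replicate at 50% or more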;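 further: 0 = median of the neutral control wells; tested in H4 reporter cells; numbers are from one replicate; inactives centre near -14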
# Bead autofluor: compound fluorescence in toxin protease inhibitor counterscreen; compound autofluorescence counterscreen, microsphere flow cytometry; active compounds read high; fluorescence intensity (no concentration beside the values); actives 3.1% (n = 360,000); AID 624483;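 active means at least 3 SD above the mean of all compounds, about 16000 in these data; inconclusive means too few beads counted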;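 further: 100 nL of 1 mM stock went into each well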
# Mtb hypoxia rep growth: second read-out of Mtb hypoxia rep, no call of its own (marks repeat the call); growth inhibition, %; measured here: M. tuberculosis growth (absorbance);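 0% = vehicle and 100% = reference antibiotic; read after six days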
# An asterisk follows results filed as active; ? = inconclusive; / = not tested or not shown. The order is random; overall some 4% were active at least once.
# Each structure is followed by: Sa ugtP lethal	Sa RN4220 lethal	BJeLR viability	Mtb hypoxia rep	Mtb hypoxia rep growth	PrP 5UTR inh	Bead autofluor
- O=C(CCN1CCOCC1)c1ccc(N2CCCCC2)cc1
    3	6.0	/	4	-1	19	4387
- O=C(NCCC1=CCCCC1)NC12CC3CC(CC(C3)C1)C2
    -10	-4.3	6	/	/	-92	4448
- COc1cc(CC(NC(C)=O)C(=O)NC2CCN(C(=O)Nc3ccc(C)cc3)CC2)cc(OC)c1 (stereo not drawn)
    /	/	-1	/	/	-13	3895
- Cc1cc(C)nc(SCCS(=O)Cc2ccc(Cl)cc2)n1 (stereo not drawn)
    -6	-10	-3	13	3	-12	3238
- CCOC(=O)C(O)(c1ccc(NC(=O)c2ccc(Cl)c(Cl)c2)cc1)C(F)(F)F (stereo not drawn)
    -9	25	5	8	-3	-36	/
- CCCN1CNC(=S)N(c2ccccc2OCC)C1
    2	4.6	9	-3	-3	-15	7235
- Cc1sc(NC(=O)CSc2nnnn2C)c(C#N)c1C
    6	1.9	1	7	15	-3	4627
- Cn1c(Cc2cccs2)n[nH]c1=S
    1	3.3	2	12	6	-24	3841
- CCN(CC)CCN(Cc1cc2cccc(C)c2[nH]c1=O)C(=S)Nc1ccccc1
    17	1.8	1	9	9	-10	4523
- CS(=O)(=O)Nc1cccc(-c2cnc3ccccc3n2)c1
    4	2.7	-13	-3	4	-50	4381
- O=C(O)c1ccc(N2C(=O)Nc3ccccc3N2O)cc1
    6	-1.3	-5	5	5	-22	4495
- Cn1c(=O)c2c(-c3ccccc3)n(Cc3cccnc3)cc2n(C)c1=O
    -8	2.5	-4	3	2	-11	2847
- CC1CN(C(C)CO)C(=O)c2cccc(NC(=O)NC3CCCCC3)c2OC1CN(C)S(=O)(=O)c1cccs1 (stereo not drawn)
    4	1.4	/	5	10	/	/
- NN=C(N)N
    -6	0.6	/	-4	9	39	6217
- O=C(Nc1ccc2c(c1)CCC2)c1ccc(Cl)nc1
    -5	0.0	-9	14	18	-132	3312
- C[C@]12CCC(=O)C=C1CC[C@@H]1C2CC[C@]2(C)C(=O)CCC12 (stereo partly drawn)
    -1	4.0	-2	1	2	-10	3423
- COC(=O)CSc1ncc(S(=O)(=O)c2ccccc2)c(=O)[nH]1
    6	-0.8	2	5	-13	-14	3744
- O=C(CSc1n[nH]c(-c2ccccc2)n1)N1CCCC1
    2	3.2	1	6	1	-21	3294
- O=C(O)c1ccc(N=C2c3ccccc3-c3ccccc32)cc1
    4	5.2	/	7	8	-3	3766
- CC(OC(=O)c1cc(=O)[nH]c2ccccc12)C(=O)NCc1ccccc1 (stereo not drawn)
    9	1.5	-9	-3	-1	-29	5843
- O=c1[nH]cc(S(=O)(=O)N2CCCc3ccccc32)c(=O)[nH]1
    10	2.4	-5	5	1	-14	5358
- Cn1c(=O)oc2cc(S(=O)(=O)N3CCC(C(=O)Nc4ccc(OC(F)(F)F)cc4)CC3)ccc21
    -2	4.2	1	-3	2	-25	11533
- COc1ccc(Br)cc1C=NNC(=O)CNC(=O)C1COc2ccccc2O1 (stereo not drawn)
    2	3.3	/	3	8	/	/
- Cc1onc(-c2c(Cl)cccc2Cl)c1C(N)=O
    4	2.8	-4	2	11	-15	4360
- O=C(CCC1CCCC1)Nc1ccc(C(=O)NCc2cccnc2)cc1
    7	0.6	89*	3	-2	-20	2023
- N#CC(Sc1ccccn1)c1ccc(Cl)cc1 (stereo not drawn)
    3	8.0	-7	2	-5	-17	2236
- Cc1ccc(-n2c3c(cc(C(=O)NCC(=O)c4ccccc4)c2=O)C(=O)CCC3)cc1
    1	-0.5	-23	6	8	-22	5260
- CC(C)(C)c1ccccc1NC(=O)CN1C(=O)NC2(CCCC2)C1=O
    -2	-1.9	1	-4	-9	-2	3793
- O=C1CCCN1CN(C(=O)c1ccccc1)c1ccccc1
    2	5.8	-5	-3	6	0	3388
- CCCCCCSC1=C(C#N)C(c2ccc(O)cc2)CC(=O)N1 (stereo not drawn)
    12	-1.5	-5	/	/	-19	4831

# 5 compounds from above, showing only Bead autofluor, BJeLR viability and Mtb hypoxia rep.
molecule | Bead autofluor | BJeLR viability | Mtb hypoxia rep
O=C(O)c1ccc(N=C2c3ccccc3-c3ccccc32)cc1 | 3766 | / | 7
CC(OC(=O)c1cc(=O)[nH]c2ccccc12)C(=O)NCc1ccccc1 (stereo not drawn) | 5843 | -9 | -3
O=c1[nH]cc(S(=O)(=O)N2CCCc3ccccc32)c(=O)[nH]1 | 5358 | -5 | 5
Cn1c(=O)oc2cc(S(=O)(=O)N3CCC(C(=O)Nc4ccc(OC(F)(F)F)cc4)CC3)ccc21 | 11533 | 1 | -3
COc1ccc(Br)cc1C=NNC(=O)CNC(=O)C1COc2ccccc2O1 (stereo not drawn) | / | / | 3

# Random excerpt: three entries already listed.
# Each structure is followed by: Sa ugtP lethal	Sa RN4220 lethal	BJeLR viability	Mtb hypoxia rep	Mtb hypoxia rep growth	PrP 5UTR inh	Bead autofluor
- NN=C(N)N
    -6	0.6	/	-4	9	39	6217
- COc1ccc(Br)cc1C=NNC(=O)CNC(=O)C1COc2ccccc2O1 (stereo not drawn)
    2	3.3	/	3	8	/	/
- COc1cc(CC(NC(C)=O)C(=O)NC2CCN(C(=O)Nc3ccc(C)cc3)CC2)cc(OC)c1 (stereo not drawn)
    /	/	-1	/	/	-13	3895

# New compounds follow
# Each structure is followed by: Sa ugtP lethal	Sa RN4220 lethal	BJeLR viability	Mtb hypoxia rep	Mtb hypoxia rep growth	PrP 5UTR inh	Bead autofluor
- CCC12CN3CCN(CC(C3)/C1=N/NC(=O)c1ccncc1)C2
    /	/	0	/	/	-13	4597
- CCC(CC)C(=O)N1CC(=O)Nc2ccc(F)cc2C1c1ccc(F)cc1 (stereo not drawn)
    4	0.0	-2	2	-5	-14	5725
- CCCN1CCN(CCCNC(=O)CCNC(=O)Cn2ccc3ccccc3c2=O)CC1
    -4	-0.8	-6	2	1	-6	3237
- CCOc1cc2[nH]c(=S)n(C3CCN(Cc4ccccc4)CC3)c(=O)c2cc1OCC
    5	8.7	-5	-15	-4	8	3639
- CCN(CC)S(=O)(=O)c1cc(NC(=O)CSc2n[nH]c(N)n2)ccc1C
    0	2.6	/	5	8	-4	3479
- O=C(c1ccc(-n2cnnn2)cc1)N1CCOCC1
    8	8.2	-2	5	1	-10	3269
- Cc1nn(-c2ccccn2)c2c1C(=O)CC(C)(C)C2N=[N+]=[N-] (stereo not drawn)
    7	3.8	/	-6	-9	-3	3444
- C=CCNC(=O)c1c(CSc2ccc(Cl)cc2)noc1C(=O)NCc1ccccc1
    -36	-7.9	-1	4	9	0	2807
- OCC#CCSc1nnc(-c2ccncc2)o1
    11	6.6	3	14	6	-6	?
- NC(=O)CSc1nnc(COc2cccc3ccccc23)o1
    0	5.0	-12	1	-3	-19	3587
- OCCN1CCN(CC(O)COCCOc2ccc(Br)cc2)CC1 (stereo not drawn)
    -1	4.7	8	6	2	-21	2155
- C/C(=N\NC(N)=O)c1c(F)cccc1F
    /	/	6	/	/	-12	?
- Cc1cc(NC(=O)COC(=O)CNS(=O)(=O)c2ccc(C)c(C)c2)no1
    7	3.1	8	4	4	-9	4124
- Cc1cc(C)c(S(=O)(=O)c2cccc(C(F)(F)F)c2)c(=O)[nH]1
    7	-1.6	-17	-1	6	-2	3843
- Cc1ccc(C(=O)N2CCCCC2)cc1NC1=C(Cl)C(=O)N(Cc2ccccc2)C1=O
    -5	1.0	/	8	-8	/	4416
- O=Cc1cccc2ccc3cccc(C(=O)O)c3c12
    7	4.5	12	10	0	4	6613
- COc1ccc(-n2ncc3c2CC(C)(C)CC3NC(=O)CCn2cncn2)cc1 (stereo not drawn)
    -1	3.1	4	7	-6	-11	6163
- O=C(NC1CCCC1)C(c1ccncc1)N(C(=O)Cc1cccs1)c1ccc(F)cc1 (stereo not drawn)
    4	2.6	1	-1	2	-10	5866
- CCOC(=O)NN=Cc1ccc(C)s1
    0	2.1	/	6	0	/	/
- O=C(CP(=O)(O)CC(=O)c1ccccc1)c1ccccc1
    1	4.5	2	-12	-5	-13	4896
- CC1CCN(CCc2nc3cc(NC(=O)NC4CCCCC4)ccc3n2C)CC1
    -4	8.5	11	7	7	-30	11019
- CC1=CC(C)[C@@H]2COC(c3ccc(O)cc3)C1C2C (stereo partly drawn)
    17	10	/	-8	5	/	/
- Cc1ccc(NC(=O)c2noc3c2CCCCC3)cc1
    2	6.8	7	4	6	-42	22657*
- O=C(C#Cc1ccccc1)Nc1cccc(F)c1
    5	7.6	38	6	8	-62	4126
- O=C(NC1CCCCC1)C(c1ccncc1)N(C(=O)Cc1cccs1)c1ccccc1 (stereo not drawn)
    9	4.6	4	12	0	-24	4910
- NNC(=O)c1ccc(-c2ccccc2F)cc1
    1	3.5	1	1	4	-15	3403
- O=C(OCC(=O)N1CCN(c2ccccc2)CC1)C1CCCN1S(=O)(=O)c1ccc(Cl)cc1 (stereo not drawn)
    -1	3.6	/	7	-1	-8	5779
- COc1ccc(OC(C)=O)c(C2c3cc(OC)c(OC)cc3CCN2C(C)=O)c1 (stereo not drawn)
    4	5.2	1	-1	6	-26	10002
- CN(C)C=Nc1sc2c(c1C(N)=O)CCCC2
    0	3.9	/	8	18	/	/
- COc1ccccc1C(=O)N1CCC(N2CCN(c3ccccc3)CC2)CC1
    1	5.3	-8	5	-4	6	4385

# 3 of these compounds, reformatted.
compound | Sa ugtP lethal | Sa RN4220 lethal | BJeLR viability | Mtb hypoxia rep | Mtb hypoxia rep growth | PrP 5UTR inh | Bead autofluor
CCC12CN3CCN(CC(C3)/C1=N/NC(=O)c1ccncc1)C2 | / | / | 0 | / | / | -13 | 4597
CCOc1cc2[nH]c(=S)n(C3CCN(Cc4ccccc4)CC3)c(=O)c2cc1OCC | 5 | 8.7 | -5 | -15 | -4 | 8 | 3639
CCOC(=O)C(O)(c1ccc(NC(=O)c2ccc(Cl)c(Cl)c2)cc1)C(F)(F)F (stereo not drawn) | -9 | 25 | 5 | 8 | -3 | -36 | /

# Continuation.
# Each structure is followed by: Sa ugtP lethal	Sa RN4220 lethal	BJeLR viability	Mtb hypoxia rep	Mtb hypoxia rep growth	PrP 5UTR inh	Bead autofluor
- CC1(c2ccccc2Cl)NC(=O)N(CC(=O)NCCC2=CCCCC2)C1=O (stereo not drawn)
    7	3.2	0	6	23	-18	4503
- COc1cccc(NS(=O)(=O)c2c(C)nc3sccn3c2=O)c1
    4	-7.4	4	13	6	-10	4389
- COc1ccc(-n2c(C)c(C(C)=O)c3cc(OC(C)=O)ccc32)cc1
    5	2.3	19	-1	-4	23	4030
- O=C1NC(CCc2ccccc2)C(=O)N1CCOc1ccccc1 (stereo not drawn)
    5	7.1	-1	10	4	5	4686
- COc1ccc(NS(=O)(=O)c2ccc(NN=C(C)c3ccncc3)c([N+](=O)[O-])c2)cc1
    11	4.1	/	-1	5	/	/
- O=C(N[C@@H](Cc1c[nH]c2ccccc12)C(=O)O)c1ccccc1Cl
    13	2.8	0	4	5	-14	5429
- NC(=O)c1ccccc1NC(=O)/C=C/c1cccc(Cl)c1
    -4	23	-14	10	15	-66	5885
- O=C1CSC(c2ccccc2)N1Nc1nc(N2CCOCC2)nc(N2CCOCC2)n1 (stereo not drawn)
    -1	5.6	-5	-1	-5	-23	2624
- Cc1ccc(NC(=O)C2CCCN(c3ncccn3)C2)cc1F (stereo not drawn)
    4	6.0	-10	0	1	-144	15717
- CCN(CC(=O)Nc1cccc(C(C)=O)c1)S(=O)(=O)c1ccc(OC)cc1
    4	4.3	3	/	/	-10	2363
- COCCCNC(=O)c1ccc([N+](=O)[O-])c(Cl)c1
    4	2.9	3	9	5	-19	1962
- COC(=O)c1cc(N=Cc2c(O)c3ccccc3oc2=O)cc(C(=O)OC)c1
    1	2.0	-17	4	2	-19	4250
- Nn1c(SCC(=O)NCC2CCCO2)nnc1-c1ccco1 (stereo not drawn)
    10	1.4	/	6	-4	/	/
- CCOc1ccc(C(C)=O)cc1CSc1nnnn1-c1ccc(O)cc1
    4	-6.0	-1	-1	24	-3	4449
- Cc1ccc(S(=O)(=O)NCC(=O)NCc2ccncc2)cc1
    -3	3.1	3	/	/	-13	3691
- O=C(NCCN1CCCCC1)Nc1ccc(F)cc1
    0	-0.7	-8	-1	-1	-25	3924
- CCOC(=O)C1CCN(Cc2cn(C)nc2-c2ccc(Oc3ccccc3)cc2)CC1
    5	13	-2	0	8	-28	4373

# Screening results (PubChem)
